Compound activity from PubChem.
Sfp PPTase inh: qHTS Assay for Inhibitors of Bacillus subtilis Sfp phosphopantetheinyl transferase (PPTase); Potency, µM, without a hit: max response, negative = inhibition, actives largely listed as inhibitors; Biochemical Sfp PPTase activity, qHTS; 310,000 compounds, 3.5% hits; AID 1490, 2009; active = well fitted inhibition curve with a large enough effect; inconclusive = small, poorly fitted or top-dose-only effect, or another doubt; inactive = no such curve, though single readings can be large or run the other way;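 also: the enzyme is Sfp with the accession as filed and its product quenches rhodamine fluorescence; potency is read from the fitted curve at half-maximal effect; 0% = enzyme reaction without inhibitor and -100% = no enzyme wells; top concentration of the series not given in the record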
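Buffer: 50 mM Hepes-Na pH 7.6, 10 mM MgCl2, 0.01% Nonidet P-40, 0.01% BSA. Enzyme 15 nM, pre-exposed to compound 15 min; substrates then added and fluorescence change tracked over 30 min.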
gsp ag: qHTS for Agonist of gsp, the Etiologic Mutation Responsible for Fibrous Dysplasia/McCune-Albright Syndrome: qHTS; gsp mutant cells, cAMP HTRF, 30 min; control for the full effect not named in the record; Potency, µM (titrated, usually from 76.9 µM), for inactives: at the highest dose activation (cAMP increase), actives largely listed as activators; 340,000 compounds, 0.13% hits; AID 624287, 2012; active = well fitted activation curve with a large enough effect; inconclusive = small, poorly fitted or top-dose-only effect, or another doubt; inactive = no such curve, though single readings can be large or run the other way; cell line not stated here;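 also: phosphodiesterase inhibitor Ro 20-1724 added with compounds to block cAMP breakdown; potency is read from the fitted curve at half-maximal effect; nearly all actives have a fitted effect of over 60% in size; about a fifth of the inactives were tested at one dose only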
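Cells in DMEM/10% FBS with G418 were pretreated with compounds in DMSO plus […] (300 uM stock) for 30 min at 37C. cAMP was measured by HTRF (cAMP-d2 plus anti-cAMP antibody-K) after 30 min at room temperature.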
ClpP mod: qHTS Assay for Activators of ClpP; ATP-dependent Clp protease proteolytic subunit (Bacillus subtilis (strain 168)), P80244; purified B. subtilis ClpP, FRET peptide cleavage, 20 min; Potency, µM (doses to about 57.5 µM), for the others: at the highest dose activity change, negative = active; 340,000 compounds, 1.9% hits; AID 651965, 2013; active = well fitted falling curve with a large enough effect; inconclusive = small, poorly fitted or top-dose-only effect; inactive = no such curve, though single readings can be large or run the other way; also: potency is read from the fitted curve at half-maximal effect; the source files actives as falling curves though it sought activators and does not explain the sign; nearly all actives have a fitted effect of over 65% in size; many hits overshoot -100%
Target sequence (P80244 whole entry, looked up): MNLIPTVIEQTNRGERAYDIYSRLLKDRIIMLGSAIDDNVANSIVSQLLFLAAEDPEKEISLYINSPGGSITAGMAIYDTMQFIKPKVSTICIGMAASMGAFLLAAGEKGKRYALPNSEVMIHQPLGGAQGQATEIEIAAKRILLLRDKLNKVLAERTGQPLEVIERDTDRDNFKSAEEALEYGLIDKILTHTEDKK
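Purified B. subtilis ClpP, 10 microg/mL final in Tris/HCl pH8 with KCl, BSA, glycerol and Tween-20, cleaved an Abz/nitrotyrosine-quenched decapeptide. Fluorescence (ex 320, em 430) was read at 0 and 20 min at room temperature. Delta was normalized to 5.8 microM ADEP and DMSO/no-enzyme controls.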
Menin MLL FP FL: qHTS Assay for Inhibitors Targeting the Menin-MLL Interaction in MLL Related Leukemias: Competition With Fluorescein Labeled MLL-derived Peptide. Fluorescence polarization, fluorescein-MLL peptide displacement from menin. FP activity change, % at 61.4 µM. 290,000 tested, under 10 active. AID 1766, 2009; inconclusive = falling polarisation curve, or a change in total fluorescence; inactive = total fluorescence flat and polarisation flat or rising; no compound was filed as active; the % refers to the polarisation; negative = inhibition;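 also: % of control where 0% means no effect; inhibitors lower the polarisation; unlabelled MLL peptide was the positive control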
gsp antag: qHTS for Antagonists of gsp, the Etiologic Mutation Responsible for Fibrous Dysplasia/McCune-Albright Syndrome: qHTS | gsp-mutant cells, cAMP HTRF, 30 min; control for the full effect not named in the record | AID 624288, 2012 | Potency, µM (series often up to 76.9 µM), for inactives: at the top dose activity change, negative = inhibition, most hits filed as inhibitors | 340,000 compounds, 0.4% hits; active = falling curve of any shape with a large fitted effect; inconclusive = falling curve, mostly with a smaller effect; inactive = flat or rising curve; cell line not stated here;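 also: intracellular cAMP measured with PDE inhibitor Ro 20-1724 present during compound exposure; potency is read from the fitted curve at half-maximal effect; % is scaled to controls: 0 for no effect and ±100 for the full control effect; nearly all actives have a fitted effect of over 65% in size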
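G418-selected cells were plated in DMEM/10% FBS for 16-24 h at 37C, then treated with compounds plus the PDE inhibitor […] (300 uM solution added) for 30 min at 37C. Intracellular cAMP was measured by HTRF after 30 min lysis at room temperature.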
TRPV1 potentiator: HTS Assay for Compounds that Act as Potentiators of the Vanilloid Receptor 1; Transient receptor potential cation channel subfamily V member 1 (Homo sapiens), Q8NER1; TRPV1-expressing cells, Fluo-8 calcium influx, capsaicin EC20 potentiation; host cell line not named in the record; control for the full effect not named in the record; potentiation, % at 8.33 µM; 320,000 compounds, 0.02% hits; active means potentiation above 80%; inconclusive means 30% to 80%; inactive means below 30%; also: 0% is about no effect
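TRPV1-expressing cells were cultured overnight at 35.5C and loaded with Fluo-8 calcium dye for 40 to 90 min at room temperature. After a 10 s baseline, compound was added and calcium influx was read kinetically for 3 min (ex 480/em 520 nm).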
D2 PAM: Beta-Arrestin HTS for Positive Allosteric Modulators of the Human D2 Dopamine Receptor: Potentiators; DiscoveRx D2 beta-arrestin cells, luminescence, 90 min; 100% = 57 uM dopamine signal; AID 624464, 2012; 360,000 compounds, 0.23% hits; potentiation, % (concentration not given with the values); D(2) dopamine receptor (Homo sapiens), P14416; active = potentiation of 50% or more; inconclusive = 30% to 50%; inactive = 30% or less;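 also: tested on top of an EC20 dose of dopamine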
Target sequence (P14416 whole entry, looked up): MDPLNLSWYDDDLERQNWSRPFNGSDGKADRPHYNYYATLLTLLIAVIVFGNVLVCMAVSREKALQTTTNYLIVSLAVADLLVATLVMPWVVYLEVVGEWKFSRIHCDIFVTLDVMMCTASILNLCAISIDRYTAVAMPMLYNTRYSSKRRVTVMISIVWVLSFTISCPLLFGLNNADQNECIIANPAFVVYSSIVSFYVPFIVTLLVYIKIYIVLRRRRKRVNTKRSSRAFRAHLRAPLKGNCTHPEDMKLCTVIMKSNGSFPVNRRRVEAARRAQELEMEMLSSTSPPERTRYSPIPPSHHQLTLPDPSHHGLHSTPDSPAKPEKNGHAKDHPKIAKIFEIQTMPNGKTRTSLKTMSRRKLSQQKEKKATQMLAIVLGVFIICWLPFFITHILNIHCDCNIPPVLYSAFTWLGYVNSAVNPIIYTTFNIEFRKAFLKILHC
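D2 cells co-treated with compound plus 50 nM dopamine (EC20) for 90 min at 37 deg C to detect potentiation. Beta-arrestin recruitment was read as enzyme-fragment luminescence after 1 h at ambient temperature. Full response was set by 57 uM dopamine.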
* = called active by the depositor; ? = inconclusive; / = not tested or not shown; & = joins results of further samples; [ ] = dose if it differs, or a comment.

SMILES | Sfp PPTase inh | gsp ag | ClpP mod | Menin MLL FP FL | gsp antag | TRPV1 potentiator | D2 PAM
CCc1nnc(NC(=O)CCN2C(=O)c3ccccc3S2(=O)=O)s1 | 1.1% | -15.5% | -1.8% | 1.4 | -0.1% | -12.3 | -2.3
CCN(CC)C(=O)C1CCCN(Cc2ccc3c(c2)OCO3)C1 (stereo unspecified) | -29.9% | -19.0% | -3.5% | 2.6 | -2.9% | -12.5 | -16.7
O=C1c2cccc3cccc(c23)C(=O)N1CC1CCCO1 (stereo unspecified) | -5.0% | -13.8%[15.4 µM] | / | -3.1 | -11.9% | -20.0 | -0.9
CCCN(CCC)C(=O)c1cc(-c2ccc3c(c2)OCO3)nc2ccccc12 | -27.9% | 23.8% | ? | 1.2 | -32.1% | -11.5 | -8.6
O=c1c(Cl)c(N2CCOCC2)cnn1-c1ncc(C(F)(F)F)cc1Cl | 13.5% | 29.2% | / | -10.2 | -3.6% | -1.6 | -6.0
C[n+]1cc(-c2ccccc2)oc1-c1ccccc1 | -8.1% | 8.8%[15.4 µM] | / | 2.0 | 6.1% | -17.5 | 2.3
Cc1ccc2nc(-c3cccnc3SCC(=O)N3c4ccccc4CC3C)[nH]c2c1 (stereo unspecified) | 10.4% | 2.9% | ? | 0.8 | 9.3% | 3.9 | -4.5
Cc1ccc(CNC(=O)COc2ccc(S(=O)(=O)N3CCOCC3)cc2)cc1 | / | -21.4%[15.4 µM] | / | / | 6.5% | 11.5 | -5.4
CCOC(=O)CC[C@H](NC(=O)Cn1cnc(C(=O)Nc2ccc(C)c(C)c2)n1)C(=O)OCC | / | / | 3.4% | / | 0.6% | / | 1.1
Cc1cccc(Cn2ccc(NC(=O)c3ccc4c(c3)OCO4)n2)c1 | 8.7% | -3.5%[15.4 µM] | -0.6% | 0.7 | 2.5% | -11.7 | -0.8
COc1ccc([N+](=O)[O-])cc1NC(=O)CSCc1cc(C)cc(C)c1 | 5.4% | ? | -1.2% | -0.6 | -24.1% | -9.8 | -1.0
COc1ccc(CC(=O)N/N=C(\C)CC(=O)Nc2ccc(N(C)C)cc2)cc1 | 6.1% | 1.0% | / | -0.3 | -10.9% | 17.5 | -7.7
COc1ccc(N(C)C(=O)CCS(=O)(=O)c2cccc3nsnc23)cc1 | 5.1% | -12.7% | -0.4% | 0.1 | 7.8% | 9.2 | -6.9
COc1ccc(C(=O)N/C(=C\c2cn(S(=O)(=O)N(C)C)c3ccccc23)C(=O)N2CCN(C)CC2)cc1OC | / | -7.2% | -2.1% | / | / | / | -10.1
C#CCOCCOCCOCCNc1nc(N2CCN(C(=O)Cn3cc(CCCCN)nn3)CC2)nc(N2CCN(C(=O)[C@H](Cc3ccc(O)cc3)n3cc(CCO)nn3)CC2)n1 | / | / | 1.2% | / | 15.4% | / | -2.6
COc1ccc(CCNC(=O)c2c([S-])n(-c3ccc(C)cc3)c3cccc[n+]23)cc1 | -0.7% | 32.0% | 11.0% | 1.4 | -18.9% | 28.0 | -8.9
NCCc1nnc(SCc2ccc(F)cc2)o1 | 12.0% | -27.1% | -1.2% | 3.1 | 18.1% | -3.1 | -12.2
COc1cccc(CNC(=O)CC2C(=O)NCCN2CCCc2ccccc2)c1 (stereo unspecified) | 1.5% | 15.1% | -13.0% | -7.3 | -8.5% | 11.2 | -33.5
COc1cc(/C=C/C(=O)O)cc(S(=O)(=O)NCc2ccco2)c1OC | -8.0% | 9.5%[15.4 µM] | 1.5% | 3.5 | 2.2% | 1.5 | -12.3
CC(=O)Nc1c2c(nn1-c1ccc(C)cc1)CS(=O)(=O)C2 | 3.5% | 15.7% | -4.4% | 2.4 | 1.2% | -15.9 | -7.3
S=c1[nH]cc(Cc2ccccc2)s1 | ? | -3.4% | -2.5% | -1.5 | 6.3% | 11.5 | -0.7
O=C(NC(Cc1c[nH]c2ccccc12)C(=O)O)/C(=C/c1ccc(F)cc1)NC(=O)c1ccccc1 (stereo unspecified) | 1.3% | 3.6% | -0.5% | -0.7 | 4.5% | -6.0 | -1.2
O=C(O)CC1(CC(=O)Nc2ccc3sccc3c2)CCCCC1 | 16.2% | -2.5%[15.4 µM] | -0.4% | 5.7 | -18.2% | 10.6 | 3.1
COc1ccc(C(O)CNc2ccc(C)cc2)cc1 (stereo unspecified) | 10.3% | -0.1% | 0.9% | 0.3 | 9.9% | -19.1 | -12.2
O=C(NCC1CCCO1)c1ccc2c(c1)ncn2-c1cccc(F)c1 (stereo unspecified) | 9.7% | 35.8% | -1.5% | -0.7 | 4.8% | 1.4 | -8.1
COC(=O)/C(=C/c1ccco1)NC(=O)c1ccco1 | 0.1% | -5.5% | -0.4% | -10.4 | 7.8% | -6.4 | -18.6
COc1ccc(C(=O)C(OC(=O)c2ccc(C)c(NC(C)=O)c2)c2ccccc2)cc1 (stereo unspecified) | 5.7% | ? | 1.3% | 3.6 | ? | 5.1 | -16.4
CS(=O)(=O)N(Cc1ccccc1Cl)c1ccc(C(=O)NCc2cccnc2)cc1 | 13.6% | -46.3%[inhibitor] | -3.0% | 0.5 | -12.4% | -6.2 | -4.9
Cc1ccc(NC(=O)CN2C(=O)/C(=C\c3cccs3)SC2=S)cc1 | 5.5% | 6.8% | -1.0% | 8.0 | -14.4% | 3.5 | -6.5
CCn1cc(C(=O)N[C@H](C(=O)NCCCO)C(C)C)c(=O)c2cc3c(cc21)OCO3 | 1.5% | 16.5% | -26.7% | -2.3 | 4.8% | -0.3 | 3.2

Profiles from above.
CCOC(=O)CC[C@H](NC(=O)Cn1cnc(C(=O)Nc2ccc(C)c(C)c2)n1)C(=O)OCC in the list: Sfp PPTase inh = /; gsp ag = /; ClpP mod = 3.4%; Menin MLL FP FL = /; gsp antag = 0.6%; TRPV1 potentiator = /; D2 PAM = 1.1
COc1ccc([N+](=O)[O-])cc1NC(=O)CSCc1cc(C)cc(C)c1 in the list: Sfp PPTase inh = 5.4%; gsp ag = ?; ClpP mod = -1.2%; Menin MLL FP FL = -0.6; gsp antag = -24.1%; TRPV1 potentiator = -9.8; D2 PAM = -1.0

Other entries.
SMILES | Sfp PPTase inh | gsp ag | ClpP mod | Menin MLL FP FL | gsp antag | TRPV1 potentiator | D2 PAM
O=C(CNC(=O)c1ccc(S(=O)(=O)N2CCCC2)cc1)N/N=C/c1ccccc1Cl | 2.7% | 9.6%[15.4 µM] | -0.9% | 5.4 | -15.5% | -2.1 | -14.9
C/C(=N\NC(=O)CNc1cccc(C)c1)c1ccc(Br)s1 | 3.2% | 5.4% | -13.5% | 4.6 | -12.8% | -7.1 | -19.4
CCc1cccc(CC)c1-n1c(-c2cccnc2)n[nH]c1=S | -10.4% | -11.5%[15.4 µM] | / | -4.3 | -4.4% | ? | -7.9
COc1ccc(C2c3c(ccc4ccccc34)Oc3ncn4nc(CO/N=C/c5ccccc5)nc4c32)cc1 (stereo unspecified) | 19.7% | -4.8% | -9.4% | 0.5 | -2.8% | 19.8 | -7.3
CCOc1ccc(C2C(C(=O)c3ccco3)=C(O)C(=O)N2CCCn2ccnc2)cc1OC (stereo unspecified) | -6.3% | ? | / | / | 1.1% | -1.0 | -9.3
CCC1=C(OC(=O)N(CC)CC)N2C(=O)OC(=NCc3ccccc3)[C@]2(C)[C@H]2C1=CC[C@H]1C(=O)N(CC)C(=O)[C@H]12 | 6.4%&6.5% | / | 1.7% | -6.8&0.3 | 1.2% | -40.1 | 4.9
Fc1ccc(CN2CC[C@H]3C=CCc4cccc(c43)C2)cc1 | / | / | 0.2% | / | 10.4% | -6.3 | -5.9
CC(C)CNC(=O)/C(C#N)=C1\N=C(NC(=O)c2ccco2)c2ccccc21 | ? | 22.0% | -0.9% | ? | -10.7% | -4.9 | -1.5
COc1cc2c(cc1OC)C(C)N(C(=O)c1cccc([N+](=O)[O-])c1)CC2 (stereo unspecified) | 6.1% | 6.3%[15.4 µM] | / | -3.1 | -11.7% | ? | 2.4
O=C1C[C@@H]2c3c(cccc3CN1Cc1ccc(Br)cc1)C[C@@H](O)[C@H]2O | / | 17.3% | 1.3%&-0.4% | / | 8.6% | / | -3.7
O=C(CSc1nc2ccccc2n1CC(=O)N1CCCCC1)N1CCCCC1 | -2.8% | 1.3%[15.4 µM] | / | -0.1 | -17.2% | -14.0 | 2.3
COc1ccccc1CC(NC(C)=O)C(=O)NC1CCN(S(=O)(=O)c2ccccc2)CC1 (stereo unspecified) | 16.1% | 8.8%[15.4 µM] | 1.5% | 4.9 | 6.5% | -10.8 | -7.8
CC1Cc2ccccc2N1C(=O)COC(=O)Cn1cnc2ccccc2c1=O (stereo unspecified) | 20.5% | 15.6% | 0.0% | 3.1 | 3.6% | 11.0 | -20.4
CC(=O)Nc1ccc(NC2CCCCC2NS(=O)(=O)c2ccccc2)cc1 (stereo unspecified) | 10.0% | -11.3% | 0.9% | / | -4.1% | -5.2 | -5.3
CN(C)c1nc(N)nc(CSc2nnnn2-c2cccc3ccccc23)n1 | 5.1% | 13.4% | -4.3% | 4.0 | -12.9% | 14.2 | 1.0
O=C1OCC(CO)(CO)N=C1NNc1ccccc1[N+](=O)[O-] | ? | 2.4% | -1.9% | 6.7 | -21.9% | -11.8 | -8.0
Cc1cc(C)c2[nH]c(O)c(N=NC3=NC(=O)CS3)c2c1 | -6.4% | -11.7% | 0.3% | 0.2 | ? | -2.4 | -14.8
